TRPML1 blocker – inhibitors of human TRPML1 channel; activity change, negative = inhibition, % (test concentration not listed); TRPML1-inducible cells, Ca2+ dye fluorescence, FDSS; stronger effect = lower value; inhibition of EC80 agonist-evoked calcium signal; Q9GZU1; 390,000 compounds, 0.02% hits; in the data active means activity change below about -50%; inconclusive means about -30% to -50%; inactive means above about -30%;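 further: stimulus is agonist 54-4 at its EC80 concentration; on the % scale 0 is the no-effect control and ±100 the full control effect; compound concentration not given in the record; the text of the record puts the active cut at -80%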
Target sequence (Q9GZU1 whole entry, looked up): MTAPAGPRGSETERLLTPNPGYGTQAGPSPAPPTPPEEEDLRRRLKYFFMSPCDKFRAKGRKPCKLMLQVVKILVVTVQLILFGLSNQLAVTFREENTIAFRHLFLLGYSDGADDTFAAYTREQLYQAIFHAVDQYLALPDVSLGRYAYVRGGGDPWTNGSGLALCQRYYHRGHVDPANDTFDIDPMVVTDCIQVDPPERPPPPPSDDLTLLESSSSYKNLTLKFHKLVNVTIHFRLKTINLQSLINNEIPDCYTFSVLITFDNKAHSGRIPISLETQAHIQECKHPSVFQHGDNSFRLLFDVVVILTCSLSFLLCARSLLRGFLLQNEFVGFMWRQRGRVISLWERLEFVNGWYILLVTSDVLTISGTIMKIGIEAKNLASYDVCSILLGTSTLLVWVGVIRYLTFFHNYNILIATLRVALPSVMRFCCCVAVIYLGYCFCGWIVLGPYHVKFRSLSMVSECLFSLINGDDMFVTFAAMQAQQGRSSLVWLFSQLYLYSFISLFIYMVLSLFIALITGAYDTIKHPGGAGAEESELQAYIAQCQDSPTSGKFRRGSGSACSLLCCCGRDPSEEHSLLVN
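TRPML1-DL cells, Tet-induced overnight (~16 h, 37 °C) at 1,500 cells/well, were loaded with Ca8 no-wash dye plus quencher for 45-90 min at room temperature. Compounds were pinned during FDSS kinetic reading; agonist 54-4 at EC80 (4 uM final) then added.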
gsp ag – activates gsp, the McCune-Albright syndrome mutation; gsp mutant cells, cAMP HTRF, 30 min; control for the full effect not named in the record; Potency, µM (titrated, usually from 76.9 µM), inactives show at the top dose activation (cAMP increase), most hits filed as activators; 340,000 compounds, 0.13% hits; active = well fitted activation curve with a large enough effect; inconclusive = small, poorly fitted or top-dose-only effect, or another doubt; inactive = no such curve, though single readings can be large or run the other way; cell line not stated here;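 further: phosphodiesterase inhibitor Ro 20-1724 added with compounds to block cAMP breakdown; potency means the concentration at half of the fitted maximal effect; nearly all actives have a fitted effect of over 60% in size; about a fifth of the inactives were tested at one dose only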
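Cells stably selected in G418 were plated at 2000/well, grown 16-24 hr, then given compounds in DMSO with the PDE inhibitor […] (300 uM solution added) for 30 min at 37C; cAMP was read by HTRF.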
gsp antag – antagonists of gsp mutant (McCune-Albright syndrome) | gsp-mutant cells, cAMP HTRF, 30 min; control for the full effect not named in the record | Potency, µM (highest dose often 76.9 µM), for the others: at the top dose activity change, negative = inhibition, hits mostly inhibitors | 340,000 compounds, 0.4% hits; active = falling curve of any shape with a large fitted effect; inconclusive = falling curve, mostly with a smaller effect; inactive = flat or rising curve; cell line not stated here;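 further: intracellular cAMP measured with PDE inhibitor Ro 20-1724 present during compound exposure; potency means the concentration at half of the fitted maximal effect; on the % scale 0 is the no-effect control and ±100 the full control effect; nearly all actives have a fitted effect of over 65% in size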
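G418-selected cells were plated in DMEM/10% FBS for 16-24 h at 37C, then treated with compounds plus the PDE inhibitor […] (300 uM solution added) for 30 min at 37C. Intracellular cAMP was measured by HTRF after 30 min lysis at room temperature.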
Menin MLL FP FL – menin-MLL binding inhibition, fluorescein peptide. Fluorescence polarization, fluorescein-MLL peptide displacement from menin. 290,000 tested, under 10 active. FP activity change, % at 61.4 µM; inconclusive = falling polarisation curve, or a change in total fluorescence; inactive = total fluorescence flat and polarisation flat or rising; no compound was filed as active; the % refers to the polarisation; negative = inhibition;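 further: % of control where 0% means no effect; inhibitors lower the polarisation; unlabelled MLL peptide was the positive control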
ClpP mod – qHTS Assay for Activators of ClpP; purified B. subtilis ClpP, FRET peptide cleavage, 20 min; Potency, µM (series often up to 57.5 µM), for inactives: top-dose activity change, negative = active; 340,000 compounds, 1.9% hits; active = well fitted falling curve with a large enough effect; inconclusive = small, poorly fitted or top-dose-only effect; inactive = no such curve, though single readings can be large or run the other way; further: potency means the concentration at half of the fitted maximal effect; the source files actives as falling curves though it sought activators and does not explain the sign; nearly all actives have a fitted effect of over 65% in size; many hits overshoot -100%
Target sequence (P80244 whole entry, looked up): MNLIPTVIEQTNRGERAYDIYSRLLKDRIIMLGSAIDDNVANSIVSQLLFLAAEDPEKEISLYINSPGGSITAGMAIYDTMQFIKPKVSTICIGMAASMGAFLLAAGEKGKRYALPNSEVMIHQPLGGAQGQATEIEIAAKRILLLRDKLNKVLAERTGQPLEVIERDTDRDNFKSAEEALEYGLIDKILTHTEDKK
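ClpP 10 microg/mL final, pH 8 Tris/KCl buffer with BSA, glycerol, Tween-20; compound pinned in; FRET-FV substrate; RT 20 min; Ex320/Em430; ΔFRET vs ADEP 5.8 microM, DMSO, no enzyme.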
TRPML1 ag – human mucolipin-1 channel agonism; Q9GZU1; TRPML1-expressing cells, Ca2+ dye fluorescence, FDSS; host cell line not named in the record; reference of the full effect not given here; activation, % (no concentration beside the values); 410,000 compounds, 0.12% hits; in the data active = activation above about 50%; inconclusive = about 30% to 50%; inactive = below about 30%; further: 0% is about no effect; the text of the record puts the active cut at 80%
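Kinetic FDSS Ca2+ read in Tet-induced TRPML1-DL cells (ABD Ca8 dye plus quencher, 45-90 min RT loading): baseline, then compound, then 110 s agonist window; EC80 agonist 54-4 at 4uM final added afterwards for a 110 s antagonist window.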
Numbers without * were called inactive; ? = inconclusive; / = not tested or not shown; & = joins results of further samples; [ ] = dose if it differs, or a comment.

SMILES	TRPML1 blocker	gsp ag	gsp antag	Menin MLL FP FL	ClpP mod	TRPML1 ag
O=C(COC(=O)c1cccc([N+](=O)[O-])c1)NCc1cccs1	8.7	-24.6%	-11.0%	4.1	-0.4%	1.8
Cc1ccccc1OCC(=O)OCC(=O)N1CCc2ccccc21	8.0	0.2%[15.4 µM]	-13.2%	/	-3.2%	2.3
COc1cccc(NC(=O)c2cccc(S(=O)(=O)N3CCN(Cc4ccccc4)CC3)c2)c1	-1.3	-19.8%[15.4 µM]	-4.1%	/	/	3.8
Cn1ncc([N+](=O)[O-])c1C(=O)NCc1ccccc1	1.8	17.9%	15.2%	3.5	-0.8%	0.1
COc1cc(-c2cc(C(=O)N(C)Cc3ccccc3)c3ccccc3n2)cc(OC)c1OC	-11.6	-4.1%[15.4 µM]	17.3%	/	0.1%	-0.3
O=C(Cc1ccc(F)cc1)NCCc1ccccc1	14.3	-35.3%[inhibitor]	4.9%	-1.6	1.0%	-0.3
CC(=O)c1ccc(-c2ccc(C(=O)NCC3CCCO3)o2)cc1 (stereo unspecified)	16.9	-12.8%[15.4 µM]	0.9%	/	-0.7%	0.2
Cc1occc1-c1nnc(SCC(=O)c2ccc(Cl)cc2)n1CC1CCCO1 (stereo unspecified)	7.8	-12.9%	-7.9%	0.6	0.7%	-0.9
CC(C)NC(=O)CSc1nnc(COc2ccccc2Cl)o1	19.8	1.7%	-7.8%	5.2	0.7%	0.2
CC1CC2(CCCCC2)Nc2ccc3ccccc3c21 (stereo unspecified)	-5.9	18.9%	-28.2%	2.8	17.8µM*	-0.3
COc1ccc(C2(O)CN(c3ccc(C)cc3)C3=[N+]2CCCC3)cc1 (stereo unspecified)	36.4	-1.9%[15.4 µM]	-10.8%	-1.9	-3.2%	0.0
Cc1ccc(CNCC(O)(c2ccc(F)cc2)c2ccc(F)cc2)cc1	2.0	0.7%	-2.7%	8.8	-1.2%	1.6
Cc1ccc(F)c(NC(=O)Nc2ccc3snnc3c2)c1	-19.3	/	/	/	-2.1%	0.9
N#Cc1cccc(S(=O)(=O)N2CCN(c3ccnc4cc(Cl)ccc34)CC2)c1	7.2	-32.3%[inhibitor]	25.1µM*	/	4.0%	0.0
CCC(CC)C(=O)Nc1nnc(S(=O)(=O)N2CCCc3ccccc32)s1	11.0	-10.5%	-1.2%	0.3	-0.5%	3.9
O=C(COC(=O)c1cccc(S(=O)(=O)N2CCN(c3ccccc3)CC2)c1)NCc1ccco1	28.1	1.3%	-8.3%	8.0	1.7%	1.3
COc1cc(C2Nc3cc(Cl)c(S(N)(=O)=O)cc3S(=O)(=O)N2)cc(OC)c1OC (stereo unspecified)	2.2	0.6%	15.5%	-2.1	1.2%	0.5
Cc1ccc(NC(=O)CCCn2c(=O)c3cccn3c3cccnc32)c(C)c1	-7.6	/	/	/	?	-0.5
c1ccc(-c2cnc(CSc3nnc4ccccn34)o2)cc1	-5.7	-41.3%[inhibitor]	-2.1%	0.8	-9.9%	-0.8
COc1ccccc1CNC(=O)c1ccccc1NC(=O)c1nsc2ccccc12	-11.1	/	/	/	86.1%	1.3
CCOC(=O)c1cnc(NCc2ccccc2OC)c2ccccc12	9.9	/	/	/	4.3%	3.0
CCOC(=O)C(Cc1ccc(NC(=O)/C(=C/c2ccc(OC(C)=O)cc2)NC(C)=O)cc1)N1C(=O)c2ccccc2C1=O (stereo unspecified)	-6.5	-15.3%	-23.1%	1.1	0.2%	0.1
Cc1cccc(NC(=S)NNC(=O)c2csc(C)c2)c1	33.5	-66.1%	3.4%	2.3	1.3%	2.5
CCN(CC)CCNC(=O)C(=O)Nc1cc2c3c(c1)CCC(=O)N3CCC2	-4.6	7.5%	10.9%	3.6	-0.6%	-0.9
CCn1c(SCC(=O)Nc2ccccc2F)nnc1-c1ccoc1C	-16.2	0.6%[15.4 µM]	5.2%	/	/	-0.6
CCOC(=O)N1CCN(C(=O)/C(=C/c2ccc(Br)cc2)NC(=O)c2ccc(OC)cc2)CC1	-1.8	-9.2%	-24.5%	2.5	-3.2%	-0.4
Cc1ccc(C(CCN(Cc2ccccc2)C(=O)c2ccco2)c2ccco2)cc1 (stereo unspecified)	-10.3	-4.2%[15.4 µM]	-5.5%	12.1	/	2.5
CCOC(=O)c1sc(NC(=O)CC(C)c2ccccc2)nc1C (stereo unspecified)	29.7	-7.7%	-6.2%	2.0	/	1.5
COc1ccc(Cl)cc1NC(=S)N1CCN(c2ccccn2)CC1	4.7	3.9%	-10.0%	1.8	0.8%	0.7
CC1CCCN(CCCOc2ccc(Cl)cc2Br)C1 (stereo unspecified)	-2.3	1.9%	17.5%	-3.3	-1.7%	0.4
O=C(NCC(=O)N(Cc1ccco1)C(C(=O)NC1CCCCC1)c1cccnc1)c1ccco1 (stereo unspecified)	11.1	-28.1%	8.3%	3.0	2.2%	-0.3
COc1cccc(CNS(=O)(=O)c2c(C)[nH]c(C)c2C(=O)N2CCCC2)c1	-1.3	0.9%	-9.7%	/	0.5%	-0.4
COc1ccc(C(=O)N2C=Cc3ccccc3C2C#N)cc1 (stereo unspecified)	-8.3	6.9%	/	/	-10.4%	-0.6
COc1cccc(C2=CC(c3cccc(OC)c3OC)n3nnnc3N2)c1 (stereo unspecified)	2.8	?	1.8%	3.7	-0.6%	-0.4
COc1cccc(C(C(=O)NC2CCCCC2)N(Cc2ccco2)C(=O)c2ccccn2)c1 (stereo unspecified)	12.1	0.5%[15.4 µM]	-1.0%	/	/	0.2
Cn1c(-c2ccccc2)cc(=O)n1-c1ccccc1	-6.3	-85.9%[inhibitor]	-7.2%	/	/	-0.2
O=C(O)CC(SCC(=O)Nc1ccc(Br)cc1)C(=O)O (stereo unspecified)	-7.5	-28.3%	5.9%	5.4	/	-0.2
CC1CN(S(=O)(=O)c2ccc3c(c2)NC(=O)CC(=O)N3)c2ccccc2O1 (stereo unspecified)	-6.3	/	/	/	0.9%	0.6
CC(=O)NC1C(=O)N=C(SCC(=O)NCc2ccccc2)NC1=O (stereo unspecified)	5.5	-34.6%[inhibitor]	-0.1%	-2.0	-2.1%	0.5
COc1ccccc1N1CCN(C(CNS(=O)(=O)c2ccccc2)c2ccccc2)CC1 (stereo unspecified)	-3.8	21.8%	-9.5%	/	-2.5%	-0.6
N#CCCn1nnc(-c2ccccc2F)n1	-5.7	20.3%	8.6%	-5.0	-0.8%	-0.2
COC(=O)C[C@H]1c2cc(C(F)(F)F)ccc2S(=O)(=O)N1C1CCCC1	-10.6	-16.4%	10.0%	/	0.1%&0.3%	-0.4&-0.7
CC(=O)c1ccc(NC(=O)c2ccc(-c3nc(CSc4ccc(C)cc4)c(C)o3)cc2)cc1	6.1	/	/	/	-1.3%	0.7
Cc1cc(C)c(Cn2c3ccccc3c3cnn(CC(=O)NCCN4CCOCC4)c(=O)c32)c(C)c1	-3.4	-1.7%	9.3%	0.6	-19.4%	3.0
O=C(Cc1ccc(Cl)cc1)N1CCOCC1	6.5	14.5%[15.4 µM]	-1.5%	-3.8	1.1%	-0.3
Cc1csc(NC(=O)C2COc3ccccc3O2)n1 (stereo unspecified)	-8.1	22.1%	-1.9%	-1.9	1.5%	-0.2
Cc1cc(C(=O)COC(=O)c2cccn2C)c(C)n1Cc1ccco1	4.1	3.0%	0.9%	4.0	3.9%	0.7
COc1ccccc1CCNC(=O)C(=O)NCC(c1cccs1)S(=O)(=O)c1cccs1 (stereo unspecified)	49.3	/	/	/	-4.1%	1.1
Nc1ccn(CC(=O)NCCNc2ccc([N+](=O)[O-])cn2)c(=O)n1	-3.2	/	2.9%	/	-0.7%	-0.2
Cc1cccc(-n2c(-c3csc4ccccc34)n[nH]c2=S)c1	-1.7	-7.6%	-7.6%	5.2	?	-0.6
(more compounds)
SMILES	TRPML1 blocker	gsp ag	gsp antag	Menin MLL FP FL	ClpP mod	TRPML1 ag
Cc1cc(=O)n(Cc2ccc(Br)cc2F)c2c1c(C)nn2-c1ccccc1	13.9	/	/	/	-5.2%	0.9
Cc1ccn2c(C(=O)N/N=C\c3cccs3)c(C)nc2c1	-6.1	13.5%	-0.9%	3.4	0.6%	0.3
Cn1c(=O)[nH]c(=O)c2c1nc(CN1CCN(c3ccc(F)cc3)CC1)n2CCc1ccccc1	-10.3	-24.6%	2.0%	2.7	1.5%	0.3
CC(C)C(C)NC(=O)COC(=O)C1CCN(S(=O)(=O)c2ccc3c(c2)OCCO3)CC1 (stereo unspecified)	17.7	-41.3%	6.0%	/	-0.9%	-0.6
O=C1c2ccccc2C(=O)N1n1cccc1	-20.1	?	7.4%	-2.3	-1.2%	0.2
COc1ccc(C/C(O)=C(\C#N)c2nc3ccccc3s2)cc1	-16.0	11.1%	-20.2%	11.2	-3.2%	-0.1
O=C(CN1CCN(Cc2ccccc2Cl)C1=O)NCC1CCCO1 (stereo unspecified)	-4.3	3.4%	6.7%	0.9	-0.1%	-0.4
COc1ccc(-n2cccc2/C=C2\C(=N)N3N=C(c4ccco4)SC3=NC2=O)cc1	3.7	-1.8%[15.4 µM]	?	8.6	/	0.4
Cc1nnc(SCC(=O)c2c[nH]c3ccccc23)n1C1CC1	14.6	-13.5%	-4.9%	/	2.0%	0.1
Cc1ccc(/C=N/NC(=O)CNC(=O)c2cccs2)o1	10.3	-36.0%[inhibitor]	-1.9%	-1.7	-2.4%	0.8
COC(=O)c1ccc(N(CC(=O)NCC2CCCO2)C(=O)CCC(=O)Nc2cc(C)on2)cc1 (stereo unspecified)	-11.8	1.1%[15.4 µM]	/	-5.6	/	-0.7
COc1ccc(N(C)S(=O)(=O)c2cccc(C(=O)NCC(c3cccs3)N(C)C)c2)cc1 (stereo unspecified)	-6.9	10.4%	11.3%	/	0.5%	1.7
CC(=O)Oc1ccc(C(=O)NCCc2ccccc2)cc1	31.9	-13.9%[15.4 µM]	/	3.0	/	3.0
COc1ccc(COc2cc(-c3cccc(OC)c3)nc3ccc(NC(=O)c4ccc(C)cc4)cc23)cc1	-6.1	5.5%	5.5%	0.2&-1.7	4.4%	-0.5
CCCN1C(=O)CC(C(=O)OC)=C1C	18.9	-13.7%	5.6%	0.2	-11.4%	0.2
COc1ccccc1N1CCN(S(=O)(=O)c2cc(C(=O)Nc3ccc(Oc4ccccc4)cc3)ccc2F)CC1	4.9	/	/	/	-5.3%	1.1
CCc1ccc(/C=C/C(=O)c2c(C)cc(C)[nH]c2=O)cc1	-21.8	0.9%	5.3%[15.4 µM]	0.0	-0.4%	0.6
CCCCn1c(=O)[nH]c(=O)c2c1nc(COC(=O)c1c(C)noc1C)n2CCC	-0.7	14.7%	8.2%	6.1	-6.8%	-1.2
O=C(NC1CC2CCCC(C1)N2C(=O)Nc1ccccc1)C1CC1 (stereo unspecified)	27.4	7.2%	10.9%	1.1	/	1.1

Bioassay records from PubChem BioAssay.
